Screening results: PubChem BioAssay, several laboratories
CSC inhib – blocks cancer stem cells; cancer stem cell-like cells viability, luminescence; inhibition, % at 7.5 µM; 300,000 tested, 1.1% active;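 active means mean at 75% or more and at least half the replicates too; inconclusive means mean and replicates disagree; tested in HMLE shEcad cells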;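 further: 0% = median of negative and 100% = median of positive control wells; the first replicate is given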
eIF4H FP inh – inhibitors of RNA binding by human eIF4H. 290,000 tested, 0.94% active. inhibition, % at 35 µM. AID 2012. eIF4H fluorescence polarization binding assay;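 active means 50% or more with normal probe brightness, or confirmed in later tests; inconclusive means above 50% with abnormal brightness, or retests that disagree; inactive means below 50% or failed in later tests; about a fifth of its hits are not listed in these tables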;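 further: calls also rest on retests at 20 µM and on dose response follow-up; 0% = protein and probe with vehicle and 100% = probe without protein; strong numbers were not always called active; many hits fall short of the cut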
Rce1 inh – inhibitors of yeast Ras-converting enzyme | Q03530 | yeast membranes, quenched prenylated peptide cleavage fluorescence | calls only | 290,000 tested, 0.27% active | AID 2563;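 active means fall in fluorescence gain of 50% or more versus controls, with final raw signal at or below 3038400; inconclusive means same 50% fall but final raw signal above 3038400; inactive means fall in fluorescence gain under 50%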;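 further: plate controls were neutral control wells for no effect and wells lacking membranes for full effect; tested at 10 µM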
Target sequence (Q03530 whole entry, looked up): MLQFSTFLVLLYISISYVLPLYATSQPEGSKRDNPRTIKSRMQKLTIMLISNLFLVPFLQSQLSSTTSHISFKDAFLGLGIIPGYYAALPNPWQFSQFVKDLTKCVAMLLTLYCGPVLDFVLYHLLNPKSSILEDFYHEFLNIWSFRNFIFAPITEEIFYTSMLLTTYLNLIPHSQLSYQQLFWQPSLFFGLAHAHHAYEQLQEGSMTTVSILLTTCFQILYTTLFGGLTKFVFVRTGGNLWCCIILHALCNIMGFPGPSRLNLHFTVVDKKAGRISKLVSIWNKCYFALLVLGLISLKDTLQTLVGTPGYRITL
HIV Env fusion – HIV envelope-mediated fusion inhibition. HeLa-JRFL Env/CEM21 cell fusion, luciferase. inhibition, % at 12.3 µM. 360,000 tested, 1.1% active;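 active means mean replicate inhibition score of at least 50 and every replicate individually at or above 50; inconclusive means only one of the two criteria met; inactive means mean below 50 and not all replicates reaching 50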;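 further: 0% = plate neutral controls and 100% = maraviroc near 300 nM; one replicate is shown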
MT1-MMP act inh – MT1-MMP (human) activation inhibition | AID 651647 | GFP/RFP ratio change, % at 20 µM | 360,000 tested, 0.061% active | HT1080 RFP-PRO-GFP cells, GFP/RFP ratio fluorescence, overnight; percent of plate control window, DMSO zero | P50281;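 active means GFP/RFP ratio change of at least 30% with cell ATP level not reduced by more than half and red fluorescence within 50% of control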; further: strong numbers were not always called active
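Compound: 20 µM single dose, 1% DMSO / System: HT1080 RFP-PRO-GFP cells / Controls: DMSO and RFP-L50D-GFP cell wells / Read-out basis: GFP/RFP fluorescence ratio / Schedule: overnight compound exposure at 37 °C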
Yeast UUG start – alters start codon recognition fidelity in yeast. S. cerevisiae UUG-firefly luciferase reporter, luminescence/redox ratio. activity score, % at 18.7 µM. 350,000 tested, 0.13% active;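 active means replicate mean at a twofold rise or more, about +100% in these data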;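 further: firefly luciferase made from a UUG start codon reports start codon fidelity; reporter light over untreated wells divided by growth signal over untreated wells; some hits fall short of that in this replicate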
PABP FP inh – PABP-poly(A) binding inhibition. 290,000 tested, 1% active. inhibition, % at 35 µM. AID 2014. PABP-poly(A) RNA binding, fluorescence polarization. P11940;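 active means 50% or more with normal probe brightness, or confirmed in later tests; inconclusive means above 50% with abnormal brightness, or retests that disagree; inactive means below 50% or failed in later tests; about a fifth of its hits are not listed in these tables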;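 further: calls also rest on retests at 20 µM and on dose response follow-up; controls were probe without protein and protein plus probe with vehicle; some compounds called inactive have numbers as strong as hits; many hits fall short of the cut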
MT1-MMP act inh RFP – also measured in MT1-MMP act inh; calls as there; RFP signal change, %; measured here: RFP expression control read;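 0 = vehicle wells; hits needed this value within 50% of zero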
* hit, by the source's call; i = inactive; u = inconclusive; x = no result given. These rows are one share of the data; rates above refer to the full screens.

SMILES	CSC inhib	eIF4H FP inh	Rce1 inh	HIV Env fusion	MT1-MMP act inh	MT1-MMP act inh RFP	Yeast UUG start	PABP FP inh
Cc1ccccc1C(=O)NCC(=O)OC(C)C(=O)Nc1cccc(S(=O)(=O)N2CCOCC2)c1 (stereo unspecified)	3	x	i	0	1	2	-13	x
COc1cc(/C=N/NC(=O)COc2ccccc2C)ccc1OC(=O)c1cccs1	-2	-2	i	-32	10	4	-12	-11
COc1ccccc1/C=N/NC(=O)c1cc2c(OC)c(OC)ccc2[nH]1	38	-7	i	-139	1	-9	-1	0
CCC(=O)NC(c1cc(Cl)c2cccnc2c1O)C(C)C (stereo unspecified)	35	x	x	49	8	1	-21	x
COc1cc(OC)c(NC(=O)c2sc3ncn(CC(=O)N4CCN(c5ccccn5)CC4)c(=O)c3c2C)cc1Cl	19	-8	i	-9	3	-1	21	-5
COC(=O)c1ccc(N2CCN(S(=O)(=O)c3ccc(C)cc3)CC2)c([N+](=O)[O-])c1	9	5	i	-20	-4	-7	-6	-5
CCOc1ccc(NC(=O)c2ccc(Cn3nc(C)cc3C)o2)cc1	6	-13	i	4	2	-6	-10	-8
CN(C)c1ccnc(-n2cccc2/C=N/OCc2ccc(F)cc2Cl)c1C#N	-3	4	i	x	0	-4	-13	5
COc1ccc2[nH]c(C(=O)N3CCC(n4nccc4NC(=O)C4CC4)CC3)c(C)c2c1	-4	1	i	-19	2	-1	3	-4
O=C(O)C1CCCN1S(=O)(=O)c1ccc2ccccc2c1 (stereo unspecified)	-6	-2	x	2	1	5	-20	-8
CCOC(=O)c1c(C)nc2ccccc2c1C	30	-3	i	x	4	3	-16	13
O=C(Nc1nnc(CCN2CCOCC2)s1)c1ccccc1	x	-6	i	-38	6	5	-25	2
COc1ccc(C2COc3cc(O)ccc3C2)c(OC)c1O (stereo unspecified)	2	x	i	x	0	-5	-9	x
O=C(Nc1cccc([N+](=O)[O-])c1)c1ccc2nsnc2c1	4	-10	i	x	5	0	-16	-9
CN1CC(=O)N(CC(=O)Nc2cccc(S(=O)(=O)N3CCOCC3)c2)C1=O	-1	-2	i	-6	-3	-1	x	3
O=c1[nH]cccc1-c1nc2ccccc2n1Cc1ccc(F)cc1	0	-8	u	3	1	-1	-29	15
O=C(Cc1ccccc1)NCC(=O)Nc1cccc(Br)c1	-7	-9	i	-2	-2	-1	3	4
Cc1cc(C(=O)N/N=C/c2ccc(N(C)C)o2)cs1	-1	21	x	-16	3	8	0	15
O=C(Nc1ncc2c(n1)-c1ccccc1CC2)c1ccccc1	-20	5	i	-84	4	2	-12	-1
CS(=O)(=O)N1CCc2cc(C(=O)N3CCCC3)ccc21	-11	1	i	2	0	3	x	-17
CCOC(=O)c1c(O)c2cc(Cl)ccc2n(CC)c1=O	-2	-12	i	-11	-1	6	-8	-5
CCN(CC)c1ccc(CNc2ccc(Br)cn2)cc1	2	5	i	x	3	-1	2	0
CCOC(=O)c1cccc(C(=O)OCC)n1	-6	0	i	-12	1	9	-26	-2
CCCc1nnc(NS(=O)(=O)c2ccccc2)s1	-9	-9	i	-11	-4	4	-15	-1

A second format for part of the listing above.
| Molecule | CSC inhib | eIF4H FP inh | Rce1 inh | HIV Env fusion | MT1-MMP act inh | MT1-MMP act inh RFP | Yeast UUG start | PABP FP inh |
| --- | --- | --- | --- | --- | --- | --- | --- | --- |
| O=C(O)C1CCCN1S(=O)(=O)c1ccc2ccccc2c1 (stereo unspecified) | -6 | -2 | x | 2 | 1 | 5 | -20 | -8 |
| CCOC(=O)c1c(C)nc2ccccc2c1C | 30 | -3 | i | x | 4 | 3 | -16 | 13 |
| O=C(Nc1nnc(CCN2CCOCC2)s1)c1ccccc1 | x | -6 | i | -38 | 6 | 5 | -25 | 2 |
| COc1ccc(C2COc3cc(O)ccc3C2)c(OC)c1O (stereo unspecified) | 2 | x | i | x | 0 | -5 | -9 | x |
| O=C(Nc1cccc([N+](=O)[O-])c1)c1ccc2nsnc2c1 | 4 | -10 | i | x | 5 | 0 | -16 | -9 |
| CN1CC(=O)N(CC(=O)Nc2cccc(S(=O)(=O)N3CCOCC3)c2)C1=O | -1 | -2 | i | -6 | -3 | -1 | x | 3 |
| O=c1[nH]cccc1-c1nc2ccccc2n1Cc1ccc(F)cc1 | 0 | -8 | u | 3 | 1 | -1 | -29 | 15 |
| O=C(Cc1ccccc1)NCC(=O)Nc1cccc(Br)c1 | -7 | -9 | i | -2 | -2 | -1 | 3 | 4 |
| Cc1cc(C(=O)N/N=C/c2ccc(N(C)C)o2)cs1 | -1 | 21 | x | -16 | 3 | 8 | 0 | 15 |
| O=C(Nc1ncc2c(n1)-c1ccccc1CC2)c1ccccc1 | -20 | 5 | i | -84 | 4 | 2 | -12 | -1 |
| CS(=O)(=O)N1CCc2cc(C(=O)N3CCCC3)ccc21 | -11 | 1 | i | 2 | 0 | 3 | x | -17 |
| CCOC(=O)c1c(O)c2cc(Cl)ccc2n(CC)c1=O | -2 | -12 | i | -11 | -1 | 6 | -8 | -5 |
| CCN(CC)c1ccc(CNc2ccc(Br)cn2)cc1 | 2 | 5 | i | x | 3 | -1 | 2 | 0 |
| CCOC(=O)c1cccc(C(=O)OCC)n1 | -6 | 0 | i | -12 | 1 | 9 | -26 | -2 |
| CCCc1nnc(NS(=O)(=O)c2ccccc2)s1 | -9 | -9 | i | -11 | -4 | 4 | -15 | -1 |

Additional results
SMILES	CSC inhib	eIF4H FP inh	Rce1 inh	HIV Env fusion	MT1-MMP act inh	MT1-MMP act inh RFP	Yeast UUG start	PABP FP inh
COCCCNc1nc2ccccc2nc1NS(=O)(=O)c1cccc(C)c1	-12	6	i	-2	1	2	-9	11
O=C(COC(=O)c1cc(=O)c2ccccc2o1)NCc1ccc(Cl)cc1	x	x	x	21	6	5	-7	x
COC(=O)COn1c(SC(C)C)nc2ccccc2c1=O	5	-10	i	-65	6	5	-4	4
COc1ccccc1-c1noc(CCC(=O)Nc2cccnc2)n1	x	x	x	10	4	0	-11	x
CCN(CC)CC(=O)Nc1cccc2c1C(=O)c1ccccc1C2=O	18	0	x	-116	-2	5	0	20
CC(C)CN(C(=O)C1=NN(c2ccccc2)C(=O)CC1)c1c(N)n(Cc2ccccc2)c(=O)[nH]c1=O	1	x	x	8	-1	-3	2	x
COc1cccc(CNC(=O)CN(C)S(=O)(=O)c2ccc3c(c2)CC(C)N3C(C)=O)c1 (stereo unspecified)	-9	-4	i	-4	-4	0	10	0
CC1O[C@@H]2O[C@](O[C@H](C)CC[C@@H](C)O)(c3ccccc3)O[C@@H]2C[C@H]1O (stereo partly specified)	-11	x	i	-12	-6	4	-11	x
CC(=O)Nc1ccc(Nc2c3ccccc3nc3ccccc23)cc1	85*	1	i	-89	-5	-4	x	6
O=C(NCCO)/C(=C\c1ccc([N+](=O)[O-])o1)NC(=O)c1ccccc1	12	u	i	4	-2	1	x	-6
COc1ccc(N2CCCCn3c2nc2c3c(=O)n(C)c(=O)n2C)cc1	-13	7	i	-31	-1	2	4	-3
NNc1nnnc2c1sc1nc(N3CCOCC3)c3c(c12)CCCC3	13	10	i	x	x	x	x	-8
CC(C)(C)S(=O)(=O)N1Cc2cc(=O)n(Cc3ccccc3)c(CCO)c2[C@H]1CCO	x	x	x	-42	-3	5	-18	x
Cc1cc(NC(=O)CCC(=O)N(c2ccccc2)C(C(=O)NC2CCCC2)c2ccccc2F)no1 (stereo unspecified)	x	-6	i	17	0	5	0	-3
CN(C)c1cccc(C(=O)NCc2ccc3c(c2)OCO3)c1	-15	-3	i	-6	-5	-1	-7	5
CSc1cc(C)nc(N(C)C(C)=O)n1	-7	3	i	x	-6	0	-17	-12
CC(C)Oc1ccc(C(=O)NC2CCS(=O)(=O)C2)cc1 (stereo unspecified)	x	2	i	x	-4	-1	-2	-10
CCOC(=O)C(C)N1N=C(/C=C/c2ccc(C)cc2)CCC1=O (stereo unspecified)	-18	2	i	-456	5	-3	-3	0
O=C(NC(=S)Nc1ccc(CN2CCOCC2)cc1)c1cccc(F)c1	x	-5	i	3	2	0	3	-2
CC12CCC(C(=O)N(CCCN3CCN(Cc4ccccc4)CC3)C1=O)C2(C)C (stereo unspecified)	39	2	i	19	-1	0	-14	15
CC1=C(C)CC(C(=O)NCc2ccccn2)C(C(=O)O)C1 (stereo unspecified)	1	2	i	0	5	8	x	2
O=C(COc1ccccc1)N=C1SC2CS(=O)(=O)CC2N1CCc1ccccc1 (stereo unspecified)	-1	-10	i	16	-1	-1	1	7
CCOC(=O)c1ccc(Nc2ccc([N+](=O)[O-])cn2)cc1	0	2	i	13	1	3	x	6
COc1cc(C(=O)Nc2nnc(C)s2)cc(OC)c1OC	-7	-2	i	14	13	5	-18	-9
O=C(O)c1[nH]c2ccccc2c1NS(=O)(=O)c1ccc(F)cc1	-7	-2	i	-15	-7	0	-7	9
CCCCn1nnnc1C(c1cccc(OC)c1OC)N1CCN(C/C=C/c2ccccc2)CC1 (stereo unspecified)	x	x	x	-1	-4	-7	7	x
CCCCC(=O)NCCNc1nc2c(c(=O)n(C)c(=O)n2C)n1Cc1ccccc1	-3	-14	i	1	6	2	-13	9
CCCCCCCCNS(=O)(=O)CCNCCc1ccccc1	x	x	x	9	1	2	2	x
CCOC(=O)CSc1nc2ccc(Nc3nc(N4CCOCC4)nc(N4CCOCC4)n3)cc2s1	-2	-12	i	8	5	-6	-26	-1
CCN(CC)c1ccc(C(=O)NNC(=O)C2CCN(c3ncnc4sc(C)c(C)c34)CC2)cc1	x	x	x	41	2	-15	-4	x
O=C(O)C[C@H]1c2cc(C(F)(F)F)ccc2S(=O)(=O)N1Cc1ccccc1	-7	x	i	19	4	0	-3	x
Nc1nncn1C(=O)c1cccs1	12	-1	x	7	-7	1	-6	4
COc1ccc(C(=O)NCCCNC(=O)c2cc3ccccc3[nH]2)cc1OC	-19	-12	i	-5	5	5	5	-2
O=C(Nc1cccc(F)c1)/C(=C/c1ccco1)NC(=O)c1ccco1	2	6	i	5	-6	6	-10	-6
C/C(Cc1ccccc1)=N\NC(=O)CNC(=O)c1ccc(Cl)cc1Cl	8	-4	i	-10	1	3	1	-6
CCN(CC1CCCO1)C(=O)c1cc(COc2cc(C)c(Cl)c(C)c2)on1 (stereo unspecified)	x	6	i	-51	-3	-2	4	3
COc1ccccc1N1CCN(C(CNS(=O)(=O)c2cccs2)c2cccnc2)CC1 (stereo unspecified)	21	8	i	-71	2	3	-5	-3
CC(C)(C)c1ccc(C(=O)NNC(=S)NC(=O)c2cccnc2)cc1	25	7	i	1	6	2	-47	1
O=C(NCc1ccco1)C1CCN(C(=O)Cc2ccccc2)CC1	-5	-2	i	x	-3	0	-15	3
O=C(N/N=C/c1cccc2ccccc12)c1ccc(CN2CCOCC2)cc1	0	-10	i	14	14	-7	-8	-11
O=C(CSc1nnc(NC(=O)c2ccco2)s1)Nc1ccc(F)cc1	x	-8	i	0	-2	1	-20	-21
COC(=O)C1=C(C)N(C)C(=S)NC1c1c(OC)ccc2ccccc12 (stereo unspecified)	-15	17	i	7	0	-2	-37	22
CCN1/C(=C/c2cccc[n+]2C)Sc2ccc(OC)cc21	34	-9	i	20	-81	-27	8	48
COc1ccc(/C=N/Nc2ccc(C(F)(F)F)cc2[N+](=O)[O-])cc1O	-15	4	i	26	14	-4	x	-1
Cc1ccc(CNC(=O)CN2CCC(C(N)=O)CC2)cc1	1	-2	i	-10	3	4	-13	-10
CN(C)C(=O)c1ccc(NC(=O)COC(=O)c2cc3c(s2)CCCCC3)cc1	-2	x	x	x	-2	0	-8	x
